miR-21 FLuc: qHTS Assay for Modulators of miRNAs and/orActivators of miR-21. HeLa miR-21 FLuc reporter, luciferase, 48 h. Potency, µM (top dose mostly 38.3 µM), inactives show at the top dose reporter change, positive = more light. 340,000 tested, under 10 active; active = well fitted rising curve with a large enough effect; inconclusive = small, poorly fitted or top-dose-only effect; inactive = no such curve, though single readings can be large or run the other way;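 further: % of control where 0% means no effect; miR-21 action dims this reporter so a rising signal means less miR-21 action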
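Using DMEM plus 10% FBS, HeLa miR-21-FLuc cells are incubated with test compounds (final up to about 40uM) for 48 hours; firefly luciferase signal is then imaged following reagent-mediated lysis.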
* marks the source's active call; other numbers are inactive results; ? = inconclusive; [ ] = remark or other dose. These rows are one share of the data, so the mix of outcomes need not match the whole.

SMILES | miR-21 FLuc
N#CC1=C2SCN(C3CCCCC3)CN2C(=O)CC1c1ccc(Br)cc1 (stereo not drawn) | 0%
COc1ccc2c(c1)c1c(c(=O)n(-c3cccc(C)c3)c(=O)n1CC(=O)NCC1CCCO1)n2C (stereo not drawn) | -1%
O=C(c1ccccc1Cl)N1CCC(c2nc3ccccc3s2)CC1 | 22%
CCS(=O)(=O)c1ncc(Cl)c(C(=O)NCc2ccc(OC)cc2)n1 | ?
Cc1ccc(Cl)cc1NC(=O)CCn1cnc2ccccc2c1=O | -8%
CC1CCN(S(=O)(=O)N2CCC(C(=O)NCc3ccccc3Cl)CC2)CC1 | 2%
O=C(C1CCN(c2nc3ccccc3[nH]2)CC1)N1CCN(c2ccccc2)CC1 | -1%
COc1cccc(C2C(C(=O)Nc3ccccc3OC)=C(C)Nc3nc4ccccc4n32)c1 (stereo not drawn) | 19%
Cc1ccc(-n2c3c(c(=O)[nH]c2=O)C(NC(=O)c2ccccc2F)(C(F)(F)F)C(=O)N3)cc1C (stereo not drawn) | 5%
Cc1ccc(CN2CCN(C3CCN(S(=O)(=O)N(C)C)CC3)C(=O)C2=O)cc1 | 2%
COc1ccc(-c2noc(C3CC(=O)N(c4ccccc4)C3)n2)c(OC)c1 (stereo not drawn) | -12%
CCOC(=O)Cn1c(=O)c2c(nc3n2CCN3c2ccc(CC)cc2)n(C)c1=O | -26%
COC(=O)C1CCN(c2csc3ccc(C)cc3c2=O)CC1 | -31%
Cn1nnnc1SCCNCc1ccc(F)cc1 | -2%
COc1ccc(NC(=O)c2cnc(N3CCCC3)nc2)cc1OC | -11%
COc1ccc(-c2onc(C)c2C)cc1S(=O)(=O)N1c2ccccc2CC1C (stereo not drawn) | 7%
CC(C)(C)c1ccc(C(=O)Nc2ccc(OCc3cc(=O)n4ccsc4n3)cc2)cc1 | 1%
COc1ccc(Nc2c3c(nc4ccccc24)CCC3)cc1Cl | ?
CCOC(=O)c1cc(OC(=O)c2ccccc2C)n(-c2ccccc2)n1 | -1%
O=c1n(Cc2cccc(C(F)(F)F)c2)c2ccccc2c2nc(-c3ccccc3)nn12 | 5%
COc1ccccc1NC(=O)C1=C(C)Nc2nc(SCc3ccccc3)nn2C1c1ccccn1 (stereo not drawn) | 5%
Cc1ccc(CNc2nc3ccc(Cl)cc3n3nnnc23)cc1 | 0%
CCN1C(=O)C2(c3ccccc31)c1c(oc3ccc(C)cc3c1=O)C(=O)N2CCCOC(C)C (stereo not drawn) | 1%
CCCSc1ncc(Cl)c(C(=O)N2CCN(c3cccc(Cl)c3)CC2)n1 | -6%
Cn1ccc2c(OCC(=O)Nc3ccc(OC(F)(F)F)cc3)cccc2c1=O | 11%
COc1ccc(-c2noc(-c3ccc(NCc4ccc(C)cc4)c([N+](=O)[O-])c3)n2)cc1OC | -15%
CCCN1CCN(CCCNC(=O)c2ccc3c(c2)sc2nc(-c4ccc(OCC)cc4)cn23)CC1 | -2%
Cc1cccc(C)c1Nc1c(-c2ccccc2F)nc2cccc(C)n12 | 3%
Nc1ncc(S(=O)(=O)Nc2ccc(F)cc2F)cn1 | -1%
CC1CCCN(C(=O)c2cc3ccc4cccnc4c3[nH]2)C1 (stereo not drawn) | ?
Cc1cc(C)c(NC(=O)C(=O)NCC(c2cccnc2)N2CCN(Cc3ccccc3)CC2)c(C)c1 (stereo not drawn) | -16%
CCS(=O)(=O)c1ncc(Cl)c(C(=O)N(Cc2ccccc2)Cc2ccco2)n1 | ?
CCOc1ccc(-n2c(SCC(N)=O)nc3c(oc4ccccc43)c2=O)cc1 | -4%
Cc1ccc(NC(=O)c2nnn(Cc3cccc(C(F)(F)F)c3)c2N)c(C)c1 | 1%
COc1ccc2c(c1)CC(C(=O)NCCCN1CCN(c3ccccc3F)CC1)CO2 (stereo not drawn) | -1%
COc1ccc(NC(=O)C2COc3ccccc3C2)cc1Cl (stereo not drawn) | 5%
COc1ccc(-n2nnnc2C2CCN(S(=O)(=O)c3ccc(C)cc3)CC2)cc1 | 8%
O=C(CSc1nc(-c2ccc(F)cc2)[nH]c1-c1ccccc1)Nc1ccccc1 | 27%
CCOc1ccc(C(=O)NCCc2csc(-c3cccc(F)c3)n2)cc1OCC | -1%
O=C(Cc1ccc(Cl)cc1)NNC(=O)C1CC=CCC1C(=O)O (stereo not drawn) | -4%
Cc1ccc(C(=O)c2cn(Cc3ccccc3)c3ccccc3c2=O)cc1 | 20%
COc1ccc(OC)c(N(CC(=O)NCc2ccccc2)S(=O)(=O)c2ccccc2)c1 | -5%
CCOC(=O)c1cnn(-c2cccc(Cl)c2)c1C1CCN(C(=O)OC(C)(C)C)CC1 | 27%
CC(=O)c1ccc(N2CCN(C(=O)C3CCCN(S(=O)(=O)c4ccc(Br)s4)C3)CC2)cc1 (stereo not drawn) | 16%
Cc1ccc(-c2[nH]c3ccccc3c2SCCNC(=O)c2ccc(S(=O)(=O)N(C)C)cc2)cc1 | ?
Fc1ccccc1-n1ncc2c1ncn1nc(COc3ccc(Cl)cc3)nc21 | 2%
CCOC(=O)c1c(S(=O)(=O)N2CCC(C(=O)Nc3ccc(C)cn3)CC2)c(C)n(C)c1C | 3%
COc1ccc(CNC(=O)CSc2n[nH]c(-c3ccc(OC)cc3)n2)cc1 | 10%
CCOc1ccc(C(=O)Nc2cc(-c3nc4ccccc4s3)ccc2OC)cc1 | -4%
COc1ccccc1NC(=O)N1CCOc2ccccc21 | -7%

Other results follow:
SMILES | miR-21 FLuc
CNC(=O)C1CCN(c2nc3ccccc3nc2C(F)(F)F)CC1 | 5%
CN(C(=O)CSc1nc(-c2ccccc2)no1)c1ccc(F)cc1 | 7%
COc1ccc(N(CC(=O)NCCc2ccc(Cl)cc2)S(=O)(=O)c2c(C)nn(C)c2C)cc1 | 6%
COC(=O)c1cc2occc2n1CC(=O)Nc1cccc(SC)c1 | -1%
COc1cc(OC)cc(-c2nc3nc(C)c(CCC(=O)Nc4cc(F)ccc4F)c(C)n3n2)c1 | 2%
Cc1cc(C)c(NC(=O)CSc2ncc3c(n2)-c2cc(Cl)ccc2N(C)S3(=O)=O)c(C)c1 | 27%
Cc1nn(C(C)C(=O)NC2CCCCC2)c(=O)c2c1sc1ccccc12 (stereo not drawn) | 17%
CCc1cccc(C)c1NC(=O)Cn1ccn(Cc2ccc(Cl)cc2)c(=O)c1=O | -2%
CCOC(=O)c1c(C)[nH]c(C)c1S(=O)(=O)N1CCC(C(=O)Nc2ccccn2)CC1 | -1%
COc1cc2c(cc1OC)C1O[C@](c3ccsc3)(C2)Oc2cc(C)n(Cc3ccccc3)c(=O)c21 | -2%[7.66 µM]
CCc1c(C)sc2c1CCN(C(=O)Nc1cc(Cl)c(OC)cc1OC)C2c1ccccc1 (stereo not drawn) | 4%
COc1cccc(C2C=C(c3ccc(C)c(C)c3)Nc3nnnn32)c1OC (stereo not drawn) | 0%
Cc1cc(C)n2nc(CNS(=O)(=O)c3ccc(Cl)cc3)nc2n1 | 0%
COc1ccc(CNC(=O)C2CCN(C(=O)N3CCOc4ccc(Cl)cc43)CC2)cc1 | 18%
Cc1c(C(=O)NCc2cccc(F)c2)oc2c1-c1[nH]ncc1CC2 | 1%
Cc1ccc(-c2nc(S(=O)(=O)c3ccc(C)cc3)c(SCC(=O)c3ccccc3)o2)cc1 | -2%
Cc1cc2nc(-c3ccc(OCc4ccccc4C)cc3)cc(C(F)(F)F)n2n1 | 1%
CCOC(=O)N1CCc2c(sc3c2c(=O)n(-c2ccc(CC)cc2)c(=O)n3C)C1 | -6%
CCOc1ccc(C2Nc3ccccc3-c3nnc(SCc4ccccc4)nc3O2)cc1OC (stereo not drawn) | -15%
CC(=O)c1cccc(NC(=O)Cn2c(-c3cncs3)nc3ccccc32)c1 | -2%
CCCCn1c(-c2ccc(S(=O)(=O)N3CCOCC3)cc2)csc1=Nc1ccccc1 | 0%
Cc1cc(C)cc(OCC(=O)N2CCC(c3nc4ccccc4s3)CC2)c1 | 0%
COc1ccccc1CNC(=O)C(C)n1c(=O)cc(C(F)(F)F)c2c(C)nn(C)c21 (stereo not drawn) | 10%
COc1ccc(-c2nc(SCC(=O)Nc3ccc4c(c3)OCCO4)c(-c3ccccc3)[nH]2)cc1 | 25%
CCOCCCNC(=O)C1CCN(c2nn3cc(-c4ccc(F)cc4)nc3s2)CC1 | -15%
O=C(Nc1nnc(S(=O)(=O)N2CCCc3ccccc32)s1)c1cccc(F)c1 | 1%
COc1cc(NC(=O)NC(C)c2c(-n3cccc3)sc3c2CCCC3)cc(OC)c1OC (stereo not drawn) | 0%
CCOC(=O)C1CCCN(C(=O)Cn2c(=O)cc(C)c3c(C)nn(C)c32)C1 (stereo not drawn) | 10%
COc1ccc(CCC(=O)NCCc2csc(-c3cccc(F)c3)n2)cc1 | -20%
Oc1cccc(Nc2cc(-c3ccccc3)ncn2)c1 | -55%

2 records drawn at random from those above, as already listed:
SMILES | miR-21 FLuc
CCCCn1c(-c2ccc(S(=O)(=O)N3CCOCC3)cc2)csc1=Nc1ccccc1 | 0%
Oc1cccc(Nc2cc(-c3ccccc3)ncn2)c1 | -55%

(further entries)
SMILES | miR-21 FLuc
Cn1c(=O)oc2cc(S(=O)(=O)N3CCCC(C(=O)Nc4ccc(Br)cc4F)C3)ccc21 (stereo not drawn) | 1%
O=C(CSC1=Nc2ccccc2N=C(c2ccc(F)cc2)C1)Nc1ccccc1 | -7%
COc1ccc(N2C(=O)C(CC(=O)Nc3ccccc3)N(CCC3=CCCCC3)C2=O)cc1 (stereo not drawn) | -2%
CCN(c1cc(C)cc(C)c1)S(=O)(=O)c1nnc(NC(=O)C2CCCCC2)s1 | 0%
Cc1ccc(-n2ncc3c(Nc4cccc(C)c4)ncnc32)cc1 | -53%
COC(=O)c1ccc(NC(=O)CCNS(=O)(=O)c2cccc3nsnc23)cc1 | 6%
CCCSCCCNC(=O)c1ccc2c(c1)sc1nc(-c3ccc(OCC)cc3)cn12 | -1%
CCOC(=O)c1ccccc1NC(=O)c1cn(CC(C)C)c(=O)c2cc(OC)c(OC)cc12 | 3%
CC1=C(C(=O)NCc2ccccc2C)C2(CCCCCC2)OC1=O | -13%
COc1ccccc1OC(C)C(=O)Nc1cccc(-c2nc3ccccc3s2)c1 (stereo not drawn) | -24%
CCCCOc1ccc(C(=O)Nc2nnc3n2CCS3)cc1 | -10%
Cc1cccc(CNC(=O)CCCn2c(=O)c3cccn3c3ccc(F)cc32)c1 | -6%
CCCOc1ccc(-c2nc(N3CCCCC3)c3ccccc3n2)cc1 | -6%
COc1cccc(CNC(=O)N2CCc3c(sc4c3CCCC4)C2c2ccc(F)cc2)c1 (stereo not drawn) | 26%
CCN(CC)S(=O)(=O)c1ccc2c(c1)N(CC(=O)Nc1cccc(C(C)=O)c1)C(=O)CO2 | 1%
CCOc1ccc(C(=O)c2cn(CC(=O)Nc3ccc(OC)cc3)c3cc4c(cc3c2=O)OCO4)cc1 | 4%
Cc1cccc(NC(=O)c2c(C)oc3ncnc(N4CCCCC4)c23)c1C | -2%
CCC(Oc1ccccc1F)C(=O)Nc1c(C(=O)c2ccccc2)oc2ccccc12 (stereo not drawn) | -4%
CCOC(=O)c1ccc(NC(=O)c2nsc3ccccc23)cc1 | -28%
CCC1CCCCN1S(=O)(=O)c1cc2c(cc1C)NC(=O)CO2 (stereo not drawn) | -3%
COc1ccc(NC(=O)C(=O)NCCc2csc(-c3ccc(Cl)cc3)n2)cc1 | -3%
COc1cc(NS(=O)(=O)c2cc3c(cc2C)n(C)c(=O)c(=O)n3C)cc(OC)c1 | 3%
CCOc1ccc(NC(=O)C2CCN(c3nnc(C)c4c(C)n(-c5ccccc5)nc34)CC2)cc1 | 2%
CCC(Cn1nnc2ccccc2c1=O)NC(=O)Nc1ccc(C)c(C)c1 (stereo not drawn) | 14%
CCCCN(Cc1ccco1)C(=O)Cn1ncc2c([nH]c3ccccc32)c1=O | -10%
CCc1ccc(CNC(=O)c2cc3c(=O)oc4ccc(C)cc4c3s2)cc1 | 1%
Cc1cccc(C)c1NC(=O)CSc1nc(-c2ccccc2)nc2c1Cc1c(CO)cnc(C)c1O2 | 0%

In the list so far, these contain an aryl thioether with sulfur outside any ring.
SMILES | miR-21 FLuc
Cn1nnnc1SCCNCc1ccc(F)cc1 | -2%
COc1ccccc1NC(=O)C1=C(C)Nc2nc(SCc3ccccc3)nn2C1c1ccccn1 (stereo not drawn) | 5%
CCCSc1ncc(Cl)c(C(=O)N2CCN(c3cccc(Cl)c3)CC2)n1 | -6%
CCOc1ccc(-n2c(SCC(N)=O)nc3c(oc4ccccc43)c2=O)cc1 | -4%
O=C(CSc1nc(-c2ccc(F)cc2)[nH]c1-c1ccccc1)Nc1ccccc1 | 27%
Cc1ccc(-c2[nH]c3ccccc3c2SCCNC(=O)c2ccc(S(=O)(=O)N(C)C)cc2)cc1 | ?
COc1ccc(CNC(=O)CSc2n[nH]c(-c3ccc(OC)cc3)n2)cc1 | 10%
CN(C(=O)CSc1nc(-c2ccccc2)no1)c1ccc(F)cc1 | 7%
COC(=O)c1cc2occc2n1CC(=O)Nc1cccc(SC)c1 | -1%
Cc1cc(C)c(NC(=O)CSc2ncc3c(n2)-c2cc(Cl)ccc2N(C)S3(=O)=O)c(C)c1 | 27%
Cc1ccc(-c2nc(S(=O)(=O)c3ccc(C)cc3)c(SCC(=O)c3ccccc3)o2)cc1 | -2%
CCOc1ccc(C2Nc3ccccc3-c3nnc(SCc4ccccc4)nc3O2)cc1OC (stereo not drawn) | -15%
COc1ccc(-c2nc(SCC(=O)Nc3ccc4c(c3)OCCO4)c(-c3ccccc3)[nH]2)cc1 | 25%
Cc1cccc(C)c1NC(=O)CSc1nc(-c2ccccc2)nc2c1Cc1c(CO)cnc(C)c1O2 | 0%

Bioassay records from PubChem BioAssay.
